Assay outcomes (PubChem BioAssay)
HNF4A DNA FP: change in binding of human HNF4 alpha to DNA | P41235 | HNF4a-FITC DNA binding, fluorescence polarization, 1 h | activity change, % at 10 µM | 360,000 tested, 0.3% active | AID 1224865; in the data active means activity change above about 30%, passing the limit was not always enough;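 further: controls were the assay level and a saturating level of protein; the project sought stronger binding though the title names inhibitors; some compounds called inactive have numbers as strong as hits; positive values seem to mean higher polarization but the record does not say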
Ecoli growth: E. coli growth inhibition. Escherichia coli growth, OD600, 23 h; active compounds read low. OD600 absorbance (no concentration beside the values). 330,000 tested, 0.21% active;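 active means OD600 absorbance below the run mean of sample wells minus 3.6 SD, in any replicate, cut at about 0.56 in these data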;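 further: stock transfer was 300 nL into about 60 µL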
rRNA inh HTS: selective bacterial rRNA inhibition in E. coli | GFP signal change (wild-type ribosome), % (concentration not given with the values) | E. coli WT GFP vs humanized-ribosome RFP mutants, fluorescence, 24 h; active compounds read low; DMSO median 0, no signal -100 | 350,000 tested, 1.6% active;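 active means significant combined selectivity score with lowered wild-type GFP, culture density cut under 30%, mutant RFP and density less affected; inactive means any of these conditions unmet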; further: one replicate is shown; some compounds called inactive have numbers as strong as hits
AF4-AF9 inh: blocks AF4 peptide binding to human AF9 | P42568 | AlphaScreen, biotin-AF4 peptide binding to FLAG-AF9 | inhibition, % at 10 µM | 350,000 tested, 0.47% active;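 active means every replicate reaching a set inhibition limit, whatever the replicate mean, cut at about 25% in these data; inconclusive means mean inhibition reaches that limit but some replicates miss it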;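 further: 0% = plate neutral control median and 100% = total signal loss; the record names both 10 and 1 µM as test concentration; the first replicate is given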
Target sequence (P42568 whole entry, looked up): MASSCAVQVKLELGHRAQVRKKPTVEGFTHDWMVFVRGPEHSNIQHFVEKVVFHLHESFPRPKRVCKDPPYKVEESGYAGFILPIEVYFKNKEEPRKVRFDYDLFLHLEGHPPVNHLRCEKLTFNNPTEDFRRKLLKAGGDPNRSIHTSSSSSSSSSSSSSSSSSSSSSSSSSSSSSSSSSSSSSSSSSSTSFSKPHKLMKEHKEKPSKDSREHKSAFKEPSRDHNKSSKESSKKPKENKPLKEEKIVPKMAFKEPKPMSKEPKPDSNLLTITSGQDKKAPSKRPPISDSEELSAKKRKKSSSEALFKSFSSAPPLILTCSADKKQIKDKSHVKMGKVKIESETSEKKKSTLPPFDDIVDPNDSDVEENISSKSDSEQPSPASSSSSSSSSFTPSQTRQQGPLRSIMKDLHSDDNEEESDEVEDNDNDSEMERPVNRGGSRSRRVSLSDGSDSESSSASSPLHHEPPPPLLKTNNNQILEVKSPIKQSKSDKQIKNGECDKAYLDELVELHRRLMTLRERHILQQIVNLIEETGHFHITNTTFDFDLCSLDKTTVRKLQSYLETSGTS
ALR inh: blocks human ALR sulfhydryl oxidase activity; inhibition, % (concentration not given with the values); P55789; purified ALR, DTT oxidation, H2O2 HRP-luminol luminescence; 290,000 tested, 3.8% active;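 active means mean and each replicate at 75% or more; inconclusive means only one of the two met; inactive means neither met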;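 further: stock transfer was 7.5 nL into about 7.5 µL; 0% = neutral wells and 100% = wells with inactivated enzyme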
Target sequence (P55789 whole entry, looked up): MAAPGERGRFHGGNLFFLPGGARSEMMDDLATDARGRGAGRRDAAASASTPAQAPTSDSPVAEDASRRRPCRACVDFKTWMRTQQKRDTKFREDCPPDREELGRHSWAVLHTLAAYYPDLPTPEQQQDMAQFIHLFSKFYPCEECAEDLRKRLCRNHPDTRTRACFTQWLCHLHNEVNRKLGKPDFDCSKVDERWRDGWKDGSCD
FGF22 binding: shifts melting point of recombinant human FGF22 | 340,000 tested, 1.5% active | recombinant FGF22 thermal shift, SYPRO orange fluorescence; percent of sucrose octasulfate shift, DMSO zero | Q9HCT0 | calls only at 9.99 µM;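 active means melting point raised past a set limit in the mean and every replicate; inconclusive means no clear call; three in four hits are not shown here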
Target sequence (Q9HCT0 whole entry, looked up): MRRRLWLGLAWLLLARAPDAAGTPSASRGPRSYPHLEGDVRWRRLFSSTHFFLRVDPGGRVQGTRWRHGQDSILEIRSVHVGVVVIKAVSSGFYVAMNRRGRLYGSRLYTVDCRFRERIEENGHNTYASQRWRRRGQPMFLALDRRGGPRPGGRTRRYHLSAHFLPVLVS
Vif A3G: HIV-1 Vif–A3G interaction blockers – biochemical, TR-FRET, GST-Vif 1-94, biotin-A3G peptide, dose response retest, primary screen (AID 1117319); TR-FRET GST-Vif / biotin-A3G peptide binding; higher % means a stronger effect; test concentration not given here; strong numbers were not always called active; one-dose inhibition, %; IC50 in µM for titrated hits; 260,000 tested, 0.57% active;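 active means above the screen mean plus three standard deviations and confirmed in dose response; inconclusive means results disagree or hit not tested in dose response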;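 further: Vif residues 1-94 fused to GST binding biotinylated APOBEC3G peptide 110-148; 0% = full assay without inhibitor and 100% = GST in place of GST-Vif; retest series ran down from 100 µM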
rRNA inh HTS OD600: also measured in rRNA inh HTS; calls as there; OD600 change, %; measured here: OD600 growth;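 optical density of the mix in the first replicate; 0 = DMSO median and -100 = no signal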
rRNA inh HTS RFP: further read-out of rRNA inh HTS, marked with its call; RFP signal change, %; measured here: RFP humanized mutant strains;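 first replicate; 0 = DMSO median and -100 = no signal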
* hit, by the source's call; i = inactive; ? = inconclusive; · = not tested or not shown; & = joins results of further samples. This is a subset; count on the stated rates, not on these rows.

SMILES	HNF4A DNA FP	Ecoli growth	rRNA inh HTS	rRNA inh HTS OD600	rRNA inh HTS RFP	AF4-AF9 inh	ALR inh	FGF22 binding	Vif A3G
C[C@H]1CN([C@@H](C)CO)C(=O)c2cc(NC(=O)c3ccncc3)ccc2O[C@@H]1CN(C)Cc1ccc(C(=O)Nc2ccccc2N)cc1	·	·	1	7	-0.7	3.1	·	i	·
O=C(NCCNC(=O)c1ccccc1Cl)c1ccco1	-2.3	0.65	3	-1	5.4	-9.4	3	i	2%
O=C(NC1CCCCCC1)c1cccs1	-0.1	0.71	·	·	·	·	3	·	2%
Cc1ccc(C(=O)NNC(=O)c2ccc(NC(=O)C(C)(C)C)cc2)cc1	-0.3	0.7	1	7	3.4	1.3	-2	i	·
C[C@H](CO)N1C[C@H](C)[C@H](CN(C)Cc2ccc3c(c2)OCO3)Oc2c(cccc2N(C)C)C1=O	·	·	-1	0	0.0	-0.5	·	i	·
CCC(=O)N[C@H]1CC[C@H](CCn2cc(CN(C)C)nn2)O[C@H]1CO	·	·	2	11	0.5	-1.0	·	i	·
O=C(CSc1nnc(-c2cccs2)n1C1CC1)NC1CCS(=O)(=O)C1 (configuration not stated)	-0.5	0.67	5	4	-5.0	-2.3	-10	i	5%
CC(C)NC(=O)Nc1ccc2c(c1)C(=O)N([C@H](C)CO)C[C@@H](C)[C@H](CN(C)Cc1ccccc1)O2	·	·	-3	2	-3.2	-3.2	·	i	·
O=C(CSCCO)N1CCc2ccccc21	-0.3	0.72	·	·	·	·	-31	·	2%
COc1cccc(C(=O)CSc2nnc(CNS(C)(=O)=O)n2-c2ccc(C)cc2)c1	1.3	0.7	·	·	·	·	·	·	3%
OCCC1CN(Cc2nc(-c3ccccc3)cs2)CCN1C1CCCC1 (configuration not stated)	9.1	0.69	7	-11	-2.7	1.8	-11	·	?
COCC#Cc1ccc2c(c1)O[C@H](CN(C)Cc1ccccn1)[C@H](C)CN([C@H](C)CO)S2(=O)=O	·	·	1	-4	-0.7	-3.4	·	i	·
O=c1c2ccccc2ncn1CCCOc1ccccc1[N+](=O)[O-]	-5.5	0.74	·	·	·	·	5	·	0%
N#CC1=C(N)SC(N)=C(C#N)C1CCc1ccccc1	125	0.67	·	·	·	·	-33	·	9%
CCOC(=O)c1c(N2C(=O)C3C4C=CC(C4)C3C2=O)sc2c1CCC(C)C2 (configuration not stated)	-2.8	·	-29	-40	-16	2.6	-4	i	·
CCOc1ccc(NS(=O)(=O)c2ccc(NC(=O)c3ccccc3C(=O)O)cc2)cc1	-0.8	0.71	0	0	3.7	0.2	1	i	·
CCOc1ccc(-c2ncncc2-c2ccccc2OC)c(O)c1	3.3	0.7	-21	-15	-1.6	4.9	19	i	0%
CC1CCCN(C(c2ccccc2)c2sc3ncnn3c2O)C1 (configuration not stated)	0.7	0.76	-1	-5	-3.0	-0.4	?	i	5%
O=C(CCCOc1ccc(Cl)cc1Cl)NNC(=O)c1ccc(NC(=O)c2ccccc2)cc1	3.3	0.69	18	15	1.1	11	-15	i	23%
Cc1ccc(S(=O)(=O)N(C)C[C@H]2Oc3c(NC(=O)Nc4ccccc4)cccc3C(=O)N([C@H](C)CO)C[C@@H]2C)cc1	·	·	2	-12	2.1	1.6	·	i	·
CC(C)(CN1CCCC1)NC(=O)C1CCC(=O)N(CCCN2CCOCC2)C1 (configuration not stated)	1.9	0.65	11	15	-1.5	-6.5	-2	i	·
CC(=O)Nc1ccc(C(=O)Nc2ccc(S(=O)(=O)N3CCCC3)cc2)cc1	0.1	0.74	9	9	1.5	·	-8	·	-9%
COc1ccc(NC(=O)CC2COc3ccccc3O2)c(OC)c1 (configuration not stated)	0.1	0.76	·	·	·	·	-8	·	1%
COc1ccc(NC(=O)CN(C)C(=O)CCc2nc3cc(S(=O)(=O)N4CCOCC4)ccc3n2C)cc1	3.5	0.68	13	17	2.2	-1.6	-2	i	-3%
CCN(CC(=O)Nc1ccc(OC)cc1)CC(=O)N1CC(=O)Nc2ccccc21	3.5	0.68	-1	6	1.8	-10	-3	i	·
CC(C)(C)OC(=O)C[C@@H]1C/C=C\C[C@H](CC(=O)NCCO)C(=O)N2CCC[C@@H]2COC1=O	-2.5	·	11	22	-0.2	-1.4	-11	i	·
Cc1cc(=O)[nH]c(SCC(=O)Nc2ccc3c(c2)CCC3)c1C#N	0.9	0.71	·	·	·	-2.3	49	i	?
CCC(C)NC(=O)C1(C)CCC(=O)N1CCc1ccc(OC)c(OC)c1 (configuration not stated)	2.7	0.68	·	·	·	·	1	·	-1%
CCn1c(COc2ccc(OC)cc2)nnc1SCC(=O)Nc1cc(OC)ccc1OC	1.7	0.66	·	·	·	·	-6	·	1%
O=c1oc(-c2ccco2)nc2sc3c(c12)CCCC3	-1.4	0.64	·	·	·	·	·	·	-7%
O=C(O)c1cccc(COc2ccccc2Cl)c1	0.7	0.72	-9	0	3.8	1.3	-2	i	4%
Cc1cc(-c2ccco2)n(CC(=O)O)n1	2.9	0.69	·	·	·	·	-5	·	5%
Nc1ncn(CC(=O)c2ccccc2)n1	-2.6	0.69	10	12	1.5	1.1	-8	i	18%
CCCCNC(=O)CC1N=C2c3ccccc3N=C(SCC(=O)Nc3ccccc3OC)N2C1=O (configuration not stated)	0.4	0.69	·	·	·	·	-3	·	2%&6%
COc1ccc2nc(-c3ccccc3)cc(OC)c2c1	1.2	0.62	-31	-45	-13	-1.5	56	i	·
CC1(C(=O)NCc2ccccc2Br)CCN1Cc1ccc2ccccc2c1 (configuration not stated)	-1.1	·	-45	-74	-4.6	-7.5	·	i	·
CC1=Nc2cc([N+](=O)[O-])ccc2NC(C)(C)C1	4.3	0.66	4	-1	7.3	11	0	i	21%
COc1cccc(NC(=O)C2(C)CCN2C(=O)Cc2ccc(-c3ccccc3)cc2)c1 (configuration not stated)	1.1	·	·	·	·	2.1	·	i	·
CCN1[C@@H]2c3ccc(-c4ccccc4OC)c(=O)n3C[C@@H]2[C@@H](CO)[C@@H]1C(=O)NCc1ccccc1	·	·	-3	3	1.6	-0.4	·	i	·
C[C@@H]1CN([C@@H](C)CO)C(=O)c2cccc(NC(=O)C3CCCCC3)c2O[C@@H]1CN(C)S(=O)(=O)c1ccc(F)cc1	·	·	-4	-9	-0.3	1.3	·	i	·
CCN(C(=O)CSc1nc2ccc([N+](=O)[O-])cc2s1)c1c(N)n(Cc2ccccc2)c(=O)[nH]c1=O	0.0	0.73	6	9	-12	-17	·	i	·
COc1cccc(C(=O)Nc2ccncc2)c1	·	0.65	·	·	·	·	-7	·	28%
Cc1cccc(C(=O)OCC(=O)NC23CC4CC(CC(C4)C2)C3)c1O	4.3	0.71	-16	-26	1.8	-5.8	-2	i	-2%
CC(=O)C1=C(C)NC(=O)NC1c1cccs1 (configuration not stated)	-1.4	0.63	16	5	1.5	-12	-8	i	7%
C[C@H]1CCCCO[C@H](CN(C)C(=O)Nc2cccc3ccccc23)[C@@H](C)CN([C@@H](C)CO)C(=O)c2cc(N(C)C)ccc2O1	·	·	-6	-6	8.6	23	·	i	·
CCN(CC1CCCO1)C(=O)CCc1nnc(Cc2ccc3c(c2)OCO3)o1 (configuration not stated)	1.9	0.71	7	2	2.1	-0.5	-6	i	8%
CCN(CC(=O)Nc1c(F)cccc1F)C(=O)c1ccc2c(=O)n3c(nc2c1)CCC3	2.4	0.7	3	1	1.8	-0.8	·	·	-6%
N#Cc1cccc(-c2ccc3c(c2)[C@@H]2[C@@H](CCN2C(=O)c2ccccc2F)[C@H](CO)N3)c1	·	·	-23	-22	-9.2	3.0	·	i	·
CC(C)CC#Cc1cnc2c(c1)C(=O)N([C@@H](C)CO)C[C@@H](C)[C@H](CN(C)C(=O)c1cccnc1)O2	·	·	-3	3	-0.6	-2.1	·	i	·
Cc1ccc(NS(=O)(=O)c2cccc(C(=O)NCC(c3ccco3)N3CCCCC3)c2)cc1 (configuration not stated)	2.1	0.69	3	-29	2.2	4.1	1	i	·
COc1cc(C=O)ccc1OCC(=O)N1CCOCC1	1.9	0.74	·	·	·	·	-1	·	-1%
Cc1ccc2nc(NC(=O)c3ccco3)sc2c1	0.1	0.74	·	·	·	·	-5	·	-2%
Cc1ccc(N(C(C)C(=O)N2CCOCC2)S(C)(=O)=O)cc1C (configuration not stated)	1.8	0.67	12	4	-0.4	-0.1	0	i	2%
C=CCNc1ncnc2ccccc12	-0.3	0.66	·	·	·	·	-1	·	·
CCN(c1cccc(C)c1)S(=O)(=O)c1ccc(-n2cccn2)cc1	2.8	0.69	-11	-19	-0.3	-0.6	-3	i	?
COc1ccc(C)cc1NC(=O)C(OC(=O)CNC(=O)c1cccc(F)c1)c1ccccc1 (configuration not stated)	4.3	0.67	-1	2	-0.9	-5.4	·	i	·
CC(C)CC#Cc1ccc2c(c1)O[C@@H](CN(C)C(=O)Cc1cccnc1)[C@H](C)CN([C@H](C)CO)S2(=O)=O	·	·	-7	-44	4.5	6.9	·	i	·
COc1ccc(S(=O)(=O)Nc2ccc3c(c2)C(=O)N([C@H](C)CO)C[C@@H](C)[C@H](CN(C)Cc2ccncc2)OCCCC[C@H](C)O3)cc1	·	·	3	5	0.4	-4.7	·	i	·
c1ccc(CN2CCN(Cc3cn4cccnc4n3)CC2)cc1	0.6	0.67	14	7	1.9	-16	-12	·	-6%
COc1cc([N+](=O)[O-])ccc1NC(=O)NCc1ccccn1	-0.5	0.7	0	6	0.0	-0.2	-6	i	-2%

Profiles from above. Order of screens: HNF4A DNA FP, Ecoli growth, rRNA inh HTS, rRNA inh HTS OD600, rRNA inh HTS RFP, AF4-AF9 inh, ALR inh, FGF22 binding, Vif A3G
COc1cc(C=O)ccc1OCC(=O)N1CCOCC1 as listed: 1.9, 0.74, ·, ·, ·, ·, -1, ·, -1%
CCN(c1cccc(C)c1)S(=O)(=O)c1ccc(-n2cccn2)cc1 as listed: 2.8, 0.69, -11, -19, -0.3, -0.6, -3, i, ?
CC(=O)C1=C(C)NC(=O)NC1c1cccs1 (configuration not stated) as listed: -1.4, 0.63, 16, 5, 1.5, -12, -8, i, 7%
Cc1cccc(C(=O)OCC(=O)NC23CC4CC(CC(C4)C2)C3)c1O as listed: 4.3, 0.71, -16, -26, 1.8, -5.8, -2, i, -2%

Carrying on:
SMILES	HNF4A DNA FP	Ecoli growth	rRNA inh HTS	rRNA inh HTS OD600	rRNA inh HTS RFP	AF4-AF9 inh	ALR inh	FGF22 binding	Vif A3G
C[C@@H]1CN([C@@H](C)CO)C(=O)c2cccc(NC(=O)C3CC3)c2O[C@H]1CN(C)Cc1ccc(C(=O)Nc2ccccc2N)cc1	·	·	-1	0	-0.3	1.5	·	i	·
COc1ccc(N(C2=NCCCS2)S(=O)(=O)c2ccc(C(C)(C)C)cc2)cc1	0.3	0.76	4	7	-1.9	0.4	-7	i	-2%
O=C(Nc1ccc(N2CCCCC2)cc1)c1ccc2ccccc2n1	5.3	0.7	-20	-11	20	7.0	?	i	-4%
COc1ccccc1/C=C/C=N/n1c(-c2ccc(Cl)cc2Cl)n[nH]c1=S	-1.0	·	-2	-3	0.3	5.1	-2	i	·
CC(C)NC(=O)N(C)C[C@H]1Oc2c(NC(=O)c3ccncc3)cccc2C(=O)N([C@@H](C)CO)C[C@H]1C	·	·	-3	4	-2.7	-2.2	·	i	·
CCOC(=O)c1cc(C(C)C)sc1NC(=O)COC(=O)CCS(=O)(=O)c1ccccc1	1.6	0.69	3	-10	-18	-5.2	-1	i	4%
